# Screening data from PubChem.
# T cruzi inh: blocks replication of Trypanosoma cruzi. T. cruzi beta-gal in NIH3T3, luminescence, 90 h. inhibition, % (no concentration beside the values). 1.4% of 300,000 active;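 active means mean inhibition across valid replicates above about 55%, limit read from the data; inconclusive means mean below that limit but half or more replicates reach it; inactive means mean below it, under half of replicates reach it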;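 further: signal also drops with host cell toxicity which is not excluded here; 0% = plate median of DMSO wells and 100% = zero luminescence signal; higher percent means less beta-gal luminescence so fewer parasites; stock transfer was 50 nL into about 50 µL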
# Calb FLC: C. albicans growth modulation with fluconazole | AID 1979 | C. albicans CaCi-2 (fluconazole-resistant clinical isolate) + fluconazole, Alamar Blue growth, 48 h | growth inhibition, % (test concentration not listed) | 0.57% of 300,000 active;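 active means most replicates above 75%; inconclusive means exactly half above 75%; inactive means most below 75%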;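 further: all wells also contain fluconazole at 8 µg/ml as a sub-toxic cotreatment; 0% = median of DMSO wells and 100% = median of geldanamycin control wells; wells of about 8 µL received 7.5 nL stock; the first replicate is given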
# rRNA inh HTS: inhibits bacterial ribosomal RNA function over humanized ribosomes. 1.6% of 350,000 active. E. coli WT GFP vs humanized-ribosome RFP mutants, fluorescence, 24 h; hits give low values; DMSO median 0, no signal -100. GFP signal change (wild-type ribosome), % (test concentration not listed);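 active means significant combined selectivity score with lowered wild-type GFP, culture density cut under 30%, mutant RFP and density less affected; inactive means any of these conditions unmet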; further: one replicate is shown; some compounds called inactive have numbers as strong as hits
# RanGTP-Imp inh: inhibitors of RanGTP-importin-beta interaction, primary screen, biochemical, FRET, CFP-Ran, YFP-importin-beta, homogeneous; cell-free CFP-Ran/YFP-importin-beta FRET ratio; inhibition, % (concentration not given with the values); 1.1% of 300,000 active;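 active means most replicates above 15%; inconclusive means exactly half above 15%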;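 further: 0% = DMSO wells and 100% = Ran loaded with GDP instead of GTP; wells of about 40 µL received 100 nL stock; the first replicate is given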
# Bfl-1 A1 inh: inhibitors of the anti-apoptotic protein A1, read as caspase activation; MEF A1-2A-BIM cells, Caspase-Glo 3/7 luminescence, 3 h; percent of clofoctol response, vehicle zero; caspase activation, % (test concentration not listed); 0.066% of 330,000 active; AID 2462;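 active means over half of replicate activation scores above 10%, or exactly half above 10 with the replicate mean above 10; inconclusive means replicate mean below 10 yet half the replicates above 10; inactive means over half of replicates below 10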;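 further: wells of about 30 µL received 50 nL stock; many hits fall short of the cut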
# Beta cell apopt: beta cell apoptosis inhibition. INS-1E cytokine-induced death, ATP luminescence, 48 h; percent of positive-control rescue, neutral wells zero. protection from apoptosis, % (concentration not given with the values). 0.8% of 300,000 active;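 active means all replicates at 75% or more, or half of them and the mean; inconclusive means half reach 75% but not the mean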;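 further: 0% = cytokine-treated negative control wells and 100% = positive control rescue; higher means more ATP so stronger rescue from cytokine killing; wells of about 40 µL received 100 nL stock; the first replicate is given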
# Vif A3G: HIV-1 Vif–A3G interaction blockers – biochemical, TR-FRET, GST-Vif 1-94, biotin-A3G peptide, dose response retest, primary screen (AID 1117319) | TR-FRET GST-Vif / biotin-A3G peptide binding; higher % means a stronger effect; test concentration not given here; strong numbers were not always called active | inhibition, %, or IC50 in µM where a hit was titrated | 0.57% of 260,000 active;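 active means above the screen mean plus three standard deviations and confirmed in dose response; inconclusive means results disagree or hit not tested in dose response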;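 further: Vif residues 1-94 fused to GST binding biotinylated APOBEC3G peptide 110-148; 0% = full assay without inhibitor and 100% = GST in place of GST-Vif; retest series ran down from 100 µM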
# AF4-AF9 inh: inhibitors of human MLL-AF4/AF9 interaction; P42568; AlphaScreen, biotin-AF4 peptide binding to FLAG-AF9; inhibition, % at 10 µM; 0.47% of 350,000 active;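 active means every replicate reaching a set inhibition limit, whatever the replicate mean, cut at about 25% in these data; inconclusive means mean inhibition reaches that limit but some replicates miss it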;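 further: 0% = plate neutral control median and 100% = total signal loss; the record names both 10 and 1 µM as test concentration; the first replicate is given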
# Target sequence (P42568 whole entry, looked up): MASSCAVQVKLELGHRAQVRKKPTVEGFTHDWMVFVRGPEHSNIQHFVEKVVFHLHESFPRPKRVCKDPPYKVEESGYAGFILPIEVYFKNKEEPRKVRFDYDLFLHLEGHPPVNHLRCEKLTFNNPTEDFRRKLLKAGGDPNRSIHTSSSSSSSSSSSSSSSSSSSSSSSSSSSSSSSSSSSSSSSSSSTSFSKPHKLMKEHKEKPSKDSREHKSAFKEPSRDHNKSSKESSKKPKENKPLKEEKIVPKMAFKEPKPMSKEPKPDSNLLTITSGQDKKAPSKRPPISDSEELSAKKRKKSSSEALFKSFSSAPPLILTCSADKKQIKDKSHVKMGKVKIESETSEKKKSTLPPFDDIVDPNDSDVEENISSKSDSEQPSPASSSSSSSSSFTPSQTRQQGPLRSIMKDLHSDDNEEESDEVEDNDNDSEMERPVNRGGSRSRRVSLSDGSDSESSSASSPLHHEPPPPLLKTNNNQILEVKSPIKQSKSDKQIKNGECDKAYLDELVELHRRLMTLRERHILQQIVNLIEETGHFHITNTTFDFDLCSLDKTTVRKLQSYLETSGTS
# rRNA inh HTS OD600: further read-out of rRNA inh HTS, marked with its call; OD600 change, %; measured here: OD600 growth;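 optical density of the mix in the first replicate; 0 = DMSO median and -100 = no signal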
# rRNA inh HTS RFP: also measured in rRNA inh HTS; calls as there; RFP signal change, %; measured here: RFP humanized mutant strains;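 first replicate; 0 = DMSO median and -100 = no signal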
# The depositor's hits bear a star; u = inconclusive; x = no result given; & = joins results of further samples. These rows are one share of the data; count on the stated rates, not on these rows.
Structure	rRNA inh HTS RFP	Calb FLC	rRNA inh HTS	Vif A3G	T cruzi inh	RanGTP-Imp inh	AF4-AF9 inh	Beta cell apopt	rRNA inh HTS OD600	Bfl-1 A1 inh
COc1cc2c(cc1OC)CN(c1ccc(C(N)=O)cc1[N+](=O)[O-])CC2	5.4	18	-14	x	13	-2.4	3.5	5	0	-0.6
CCC(=O)Nc1c(C)ccc2nsnc12	x	3	x	13%	1	-3.4	x	-3	x	1.3
COc1ccc(-c2cn(CCCOCc3ccccc3)nn2)cc1	-7.9	0	-8	x	-12	u	-20	-2	-6	-0.7
COc1ccc(CCNC(=O)C(=O)Nc2ccc3c(c2)OCO3)cc1OC	-0.5	-8	8	0%	-14	-3.3	-0.8	1	6	1.0
CCN(CC)C(=O)/C(=C/c1ccc2c(c1)OCO2)NC(=O)c1ccc(Br)cc1	-6.2	91*	-13	31%	9	5.2	0.9	-4	-11	1.0
COCCCNC(=O)CNC(=O)c1cn(-c2ccccc2OC)c(=O)c2ccccc12	3.2	2	10	32%	1	6.4	1.9	-9	6	-0.5
COc1ccccc1N1CCN(C(=O)c2cccs2)CC1	-2.4	-23	4	-7%	-7	-4.1	-2.5	13	7	1.1
CCOc1ccc(-c2nc3n(c(=O)c2C#N)CCS3)cc1	-1.5	-15	0	-44%	-6	2.3	-2.3	-2	2	0.4
CS(=O)(=O)NCC(c1cccnc1)N1CCN(c2ccc(F)cc2)CC1 (stereo unspecified)	x	-3	x	-7%	22	-1.2	x	x	x	x
COc1ccc2nc(/C(C#N)=C\c3ccc(C(=O)O)cc3)[nH]c2c1	0.1	-5	-10	12%	4	-12	-2.2	1	-12	0.7
COc1ccc(-c2nc3ccccc3n2OCC(=O)O)cc1	-1.9	0	6	16%	8	1.4	-0.7	9	2	-8.0
CC(C)(C)c1cnnn1-c1ccc(/C=N/Nc2ccc([N+](=O)[O-])cc2)cc1	x	-5	x	u	39	34*	0.0	97*	x	0.2
O=C(c1ccccc1)N1N=C(c2ccccc2)CC1(O)C(F)(F)F (stereo unspecified)	4.3	-12	-20	x	-5	4.7	-1.1	-5	-23	1.9
CC(=O)c1cccc(NC(=O)c2c(C)nn(-c3ccccc3)c2Cl)c1	-3.0	u	-26	-11%	6	-1.4	-2.8	1	-28	-0.3
N#CC1=C(N)Oc2n[nH]c(-c3ccccc3)c2C1c1cccc(OC(=O)N2CCOCC2)c1 (stereo unspecified)	x	24	x	18%	-9	x	x	-6	x	-0.5
CCOC(=O)c1ccccc1NC(=O)C1CC(=O)N(C(C)(C)C)C1 (stereo unspecified)	-1.7	2	3	x	8	-0.2	-1.3	-5	6	0.6
NC(=O)COC(=O)c1ccc(-c2ccc(O)cc2)cc1	-0.1	-2	17	4%	3	5.9	1.0	-3	10	-1.1
O=C(COC(=O)c1cc(S(=O)(=O)N2CCOCC2)c(Cl)cc1Cl)NCc1ccco1	-1.1	x	2	-3%	x	x	0.1	-3	-3	-0.5
C/C(CC(=O)NC12CC3CC(CC(C3)C1)C2)=N\NC(=O)c1ccc(C)cc1	x	-9	x	x	2	5.8	1.2	-2	x	-0.9
CCc1nnc(NS(=O)(=O)c2ccc(NC(=O)/C=C/c3ccc(F)cc3)cc2)s1	-11	-2	-47	4%	2	x	-2.4	-1	-63	0.1
CCOC(=O)c1ccc(NC(=S)N(CCN(C)C)C(C)c2ccncc2)cc1 (stereo unspecified)	-0.9	-12	4	3%	-7	-5.3	1.2	-2	-1	0.5
N#CC1(C#N)C2=C(CCCC2)NC(c2ccccc2)C1(C#N)C#N (stereo unspecified)	x	-5	x	17%	-7	10	x	-7	x	-0.7
O=C(CCSc1ccccc1)NCCSCc1ccco1	x	-9	x	6%	6	-3.7	x	-1	x	2.1
CCOc1ccccc1N(CC(=O)NCCSc1ccccn1)S(=O)(=O)c1ccccc1	0.7	-6	-16	x	15	-2.3	2.0	0	-23	-0.8
O=C(CSc1nc2sc3c(c2c(=O)n1-c1ccccc1)CCCC3)N/N=C/c1ccccc1C(=O)O	x	6	x	x	1	-0.1	x	2	x	0.4
O=C(CCCN1C(=O)/C(=C\c2ccccc2)SC1=S)Nc1ccc(O)cc1C(=O)O	-1.9*	7	-21*	x	-19	3.2	1.1	0	-12*	-0.5
O=C(CCCCCn1c(=S)[nH]c2ccc(N3CCOCC3)cc2c1=O)NCc1cccc(Cl)c1	0.1	-1	-16	-5%	14	1.5	1.1	-4	-18	1.0
CN(C)S(=O)(=O)c1ccc(C(=O)OCC(=O)Nc2sc3c(c2C#N)CCCCC3)cc1	1.3	-16	2	15%	-4	-3.3	-1.9	-5	6	0.3
CCOC(=O)c1ccc(Oc2cc(C)nc(SC)n2)cc1	x	12	x	-4%	0	-3.3	x	2	x	0.5
O=C(NC(=S)Nc1ccc(N2CCCCC2)c(Cl)c1)c1ccc2c(c1)OCCO2	x	-2	x	9%	9	5.3	x	x	x	0.4
Nc1c(C(=O)Nc2ccccc2)sc2nc(-c3ccco3)ccc12	x	12	x	u	-22	-28	x	3	x	-1.9
C/C(=N\NC(=O)c1cccc(O)c1)c1ccc(NC(=O)Cc2ccccc2)cc1	1.2	1	-2	x	-2	0.3	-0.1	-4	-7	-1.0
COc1cc(OC)cc(C(=O)NCC2CCCN(Cc3cccc(C(C)=O)c3)C2)c1 (stereo unspecified)	-0.9	-1	-2	x	43	0.5	-0.1	-1	4	0.3
CCn1cc(C(=O)NCc2ccccc2OC)c(=O)c2cc(S(=O)(=O)N(C)C)ccc21	2.6	3	-4	0%&-9%	16	6.3	0.2	1	-7	-0.1
C=CCN(C(=O)CN1CCCCC1)c1nc(-c2ccccc2)cs1	2.2	-12	-2	x	26	5.3	-0.3	-5	-17	-0.9
CC(C)Oc1ccc(C(=O)Nc2nnc(C3=COCCO3)o2)cc1	-18	65	-49	-14%	7	1.3	u	x	-73	-1.7
O=C(Nc1cccc(S(=O)(=O)N2CCCCC2)c1)c1cnccn1	-3.6	-1	-4	5%	-7	3.8	1.8	-8	6	1.4
COc1ccc(NC(=O)c2cc(S(=O)(=O)N3CCCCC3)ccc2OC)cc1	1.1	-18	8	x	3	7.3	-1.1	2	2	1.1
CC(=O)c1ccc(N2CCN(C(=O)CCc3ccccc3)CC2)cc1	-1.3	5	-9	x	21	-4.0	2.3	-3	-7	0.2
C=CCN1CCN(C(c2ccc(Cl)cc2)c2nnnn2CCc2ccc(OC)c(OC)c2)CC1 (stereo unspecified)	x	-7	x	3%	48	2.2	x	-6	x	0.0
O=C(NCCN1CCOCC1)c1cc(Cl)ccc1Cl	-0.7	1	-5	x	-5	-0.3	0.3	-6	-5	3.5
CCOc1ccc(NS(=O)(=O)c2ccc(OC)c(NC(=O)c3ccc4c(c3)OCCO4)c2)cc1	x	13	x	15%	9	1.7	x	1	x	2.1
Cc1nc(C)c(-c2csc(Nc3cccc(O)c3)n2)s1	-4.8	41	-31	6%	0	-4.5	7.6	-4	-37	-0.1
COc1ccc(CNC(=O)c2cc(SC)ccc2Cl)cc1OC	-2.7	-7	-4	x	-7	-2.3	-1.4	-1	-14	0.7
CCOC(=O)C1CCN(C(=O)Nc2ccc3c(c2)nc(C)n3C)CC1	-8.6	-6	7	1%	-4	0.0	-14	0	2	-0.1
O=C(O)CNC(=O)c1ccc(NC(=O)/C(=C/c2ccccc2)NC(=O)c2ccco2)cc1	0.5	4	15	-1%	-8	0.1	-1.4	-5	14	0.4
COC(CNC(=O)CN1C(=O)COc2ccc(S(=O)(=O)N3CCOCC3)cc21)OC	-3.4	2	11	-3%	-5	3.9	-0.7	x	7	x
Cc1cc(C(=O)Oc2cccnc2)ccc1[N+](=O)[O-]	-0.1	0	0	x	-16	-1.9	-2.6	-2	0	0.6
O=C(NCCc1cccs1)C1CC(c2ccccc2[N+](=O)[O-])=NO1 (stereo unspecified)	-2.1	-2	2	5%	-15	-1.6	x	-3	7	0.0
COc1ccc(CSc2nnnn2C)cc1[N+](=O)[O-]	x	0	x	0%	2	-0.9	x	-9	x	0.0
C=CCC[C@@H](Cc1ccc(F)cc1)C(=O)OC[C@@H]1CCCN1C(=O)[C@H](CC=C)CC(=O)N[C@H](CO)Cc1ccccc1	4.2	x	-16	x	x	x	-1.2	-4	-14	-0.4
COc1cc(NC(=O)C(C)Oc2ccccc2)c(C(=O)O)cc1OC (stereo unspecified)	x	16	x	0%	1	0.3	x	-1	x	0.6
Cc1cc(CN(C)C(=O)c2cc(COc3ccc(F)cc3Cl)on2)n[nH]1	-1.9	-5	-28	3%	-15	-1.1	-1.5	-2	-36	0.0
Cc1ccc(NC(=O)NC2CCCCCCC2)cc1	6.2	-15	26	x	x	x	-1.5	1	20	0.9
N#CCC(=O)Nc1ccc(C(=O)OCC(=O)N(Cc2ccccc2)C2CCS(=O)(=O)C2)cc1 (stereo unspecified)	3.7	7	12	-5%	1	0.9	-0.4	0	10	-1.0
O=S(=O)(NCc1ccccn1)c1cccc2nsnc12	x	-3	x	1%	-9	2.0	x	-9	x	-5.3

# New compounds follow:
Structure	rRNA inh HTS RFP	Calb FLC	rRNA inh HTS	Vif A3G	T cruzi inh	RanGTP-Imp inh	AF4-AF9 inh	Beta cell apopt	rRNA inh HTS OD600	Bfl-1 A1 inh
Cc1cc(C)c[n+](C2=C([O-])c3ccccc3C(=O)/C2=N\S(=O)(=O)c2cccs2)c1	2.5	44	18	u	-18	-2.2	-3.2	107*	19	0.1
COc1ccc(N(C)C(=O)C2CCCN2S(=O)(=O)c2cccc3nsnc23)cc1 (stereo unspecified)	0.0	1	1	x	36	2.7	-1.0	1	1	0.6
CC(=O)N/C(N)=N/c1nc2cc(C)ccc2o1	2.5	6	12	9%	-7	-1.9	0.0	-2	16	-3.6
O=C(CCNC(=O)N1CC(=O)Nc2ccccc21)Nc1ccc(Br)cc1F	-3.2	x	0	-2%	-2	-3.5	-0.5	-2	1	0.5
CCc1ccccc1NC(=O)CN(C)C(=O)COC(=O)c1cccnc1Cl	2.8	x	9	x	x	x	-1.3	-4	7	0.2
Cc1cccc(C(=O)Nc2cccc(C(=O)N/N=C/c3ccc4c(c3)OCO4)c2)c1	-1.5	-2	6	x	16	-4.8	-3.2	2	-2	-1.6
COc1ccc(OC)c(/C=C/c2ccc3cccc(O)c3n2)c1	-18	-7	-55	x	61*	0.3	20	38	-76	0.2
Cc1cc(=O)oc2ccc(OCC(=O)NCc3ccco3)cc12	x	24	x	6%	18	-3.3	x	-6	x	0.7
